PrP UTR inh: inhibition of PrP 5' UTR reporter expression; AID 488862; cell-based PrP 5' UTR mRNA reporter, plate reader; 340,000 compounds, 0.35% hits; inhibition, % (no concentration beside the values);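 active means every replicate at 50% or more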;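 further: 0 = median of the neutral control wells; tested in H4 reporter cells; numbers are from one replicate; inactives centre near -14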
Sa ugtP lethal: compounds lethal to S. aureus RN4220 ugtP deletion mutant. OD600 growth, 16 h; some inactives read as strong as hits. growth inhibition, % (no concentration beside the values). 330,000 compounds, 0.54% hits;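 active means z-score under -3 and OD600 up to 0.15 on both plates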;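 further: plate controls were untreated wells for no effect and antibiotic for full effect; wells of about 80 µL received 100 nL stock; the first replicate is given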
Sa RN4220 lethal: S. aureus RN4220 growth inhibition. OD600, 16 h. inhibition, % (concentration not given with the values). 330,000 compounds, 0.33% hits. AID 1259311;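 active means z-score of -3 or lower and OD600 up to 0.18 on both plates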;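 further: plate controls were untreated cells for no effect and reference antibiotic for full effect; stock transfer was 100 nL into about 80 µL; one replicate is shown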
BJeLR lethal: kills HRASV12-expressing BJeLR cells; BJeLR (HRASV12) viability, CellTiter-Glo ATP luminescence, 48 h; reference of the scale not given here; inhibition, % (no concentration beside the values); 300,000 compounds, 0.17% hits; AID 1554;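 active means replicate mean above 50%; inconclusive means above 50% but judged a plate artefact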;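 further: 50 nL library stock added to about 25 µL; numbers are from one replicate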
Autofluor counter: flagged as autofluorescent in microsphere protease counterscreen | compound autofluorescence counterscreen, microsphere flow cytometry; stronger effect = higher value | fluorescence intensity (concentration not given with the values) | 360,000 compounds, 3.1% hits;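 active means at least 3 SD above the mean of all compounds, about 16000 in these data; inconclusive means too few beads counted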;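 further: 100 nL of 1 mM stock went into each well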
Mtb hypoxia inh: reduces hypoxia-regulated biosensor signal in M. tuberculosis. M. tuberculosis hypoxia-regulated fluorescent reporter, fluorescence. fluorescence inhibition, % (concentration not given with the values). 300,000 compounds, 0.1% hits;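 active means 35 to 45% if threefold the growth effect, above 45% if 1.5-fold the growth effect; inactive means the rest, general growth blockers included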;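 further: wells of about 50 µL received 100 nL stock; 0% = vehicle wells and 100% = reference inhibitor wells; whole bacteria with a GFP reporter of the hypoxia response; strong numbers were not always called active; many hits fall short of the cut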
Mtb hypoxia inh growth: recorded beside Mtb hypoxia inh, whose call it bears; growth inhibition, %; measured here: M. tuberculosis growth (absorbance);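 0% = vehicle and 100% = reference antibiotic; read after six days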
* marks the source's active call; other numbers are inactive results; ? = inconclusive; . = not tested or not shown; & = joins results of further samples.

[1] CC1CCc2nc(NC(=O)CN3CCN(c4ccccc4)CC3)sc2C1 (centres undefined)
[2] CCOc1ccc2nc(N(CCN(C)C)C(=O)c3ccc4ccccc4c3)sc2c1
[3] O=C(COC(=O)C1COc2ccccc2O1)NC1CCCCC1 (centres undefined)
[4] Cc1ccc2[nH]c(=O)c(CN(Cc3ccco3)C(=O)N3CCOCC3)cc2c1
[5] CN1CCN(S(=O)(=O)c2ccc(SCCOc3ccc(Cl)cc3)nc2)CC1
[6] CCOC([O-])=Nc1c[n+](N2CCOCC2)no1
[7] S=C(Nc1ccc(Br)cc1)N1CCn2cccc2C1c1cccnc1 (centres undefined)
[8] FC(F)(F)c1ccccc1-n1c(-c2cnccn2)n[nH]c1=S

assay / entry	1	2	3	4	5	6	7	8
PrP UTR inh	-10	-13	-31	-2	-11	.	-15	-34
Sa ugtP lethal	-3	-2	0	6	-2	-5&-2	18	5
Sa RN4220 lethal	-1.4	-1.6	2.5	1.5	0.8	3.0&5.6	5.3	2.8
BJeLR lethal	7	-2	.	-2	.	.	-16	0
Autofluor counter	.	5726	4029	3268	9472	.	3127	3773
Mtb hypoxia inh	4	7	18	-7	-1	-3	-6	12
Mtb hypoxia inh growth	9	2	9	-7	3	2	-1	2

[9] COc1ccc(N2C(=O)CC(NNc3nc4ccccc4s3)C2=O)cc1 (centres undefined)
[10] CC(C)c1ccc(/C=C(/C#N)c2nnc(NC(=O)c3ccccc3)s2)cc1
[11] O=C(OCC(=O)N1CCCc2ccccc21)c1ccccc1OC(F)F
[12] O=C(Nc1ccc(F)c([N+](=O)[O-])c1)C(=O)c1c(O)[nH]c2ccccc12
[13] O=C1C2C3C=CC(C4CC34)C2C(=O)N1Cc1ccccc1 (centres undefined)
[14] CCOc1ccc(NC(=O)COc2ccc(C(=O)NCc3cccnc3)cc2OC)cc1
[15] COc1ccc(CCNC(=O)CCN2C(=O)[C@@H]3Cc4ccccc4CN3C2=O)cc1OC
[16] Cc1cccc(C=NNC(=O)c2c(-c3ccccc3)noc2C)c1O

assay / entry	9	10	11	12	13	14	15	16
PrP UTR inh	.	-16	-19	-22	-10	22	-3	.
Sa ugtP lethal	1	-2	-3	13	13	-1	-4	5
Sa RN4220 lethal	-2.0	3.4	1.0	4.6	7.2	-2.6	2.2	-13
BJeLR lethal	-9	6	.	9	2	8	2	.
Autofluor counter	6984	3114	3491	5163	2479	?	5197	.
Mtb hypoxia inh	7	2	-6	5	3	-4	-4	3
Mtb hypoxia inh growth	4	-2	7	7	4	-7	7	6

[17] CCn1c(CC(=O)Nc2ccc(C)cc2)nnc1SCC(=O)N1CCN(c2ccccc2)CC1
[18] CC(CC(=O)OCC(=O)Nc1ccc2[nH]c(=O)[nH]c2c1)c1ccccc1 (centres undefined)
[19] COCC(=O)N(C)c1nnc(-c2cnccn2)s1
[20] Cc1cc2c(cc1S(=O)(=O)N1CCN(c3cccc(C(F)(F)F)c3)CC1)OCC(=O)N2
[21] Cc1cc(C)c(NC(=O)c2cn3c4c(c(N5CCN(C)CC5)c(F)cc4c2=O)OCC3C)c(C)c1 (centres undefined)
[22] Cn1c(=O)n(Cc2ccc(Cl)cc2)c2ccccc21
[23] CC(=O)NS(=O)(=O)c1ccc(NC(=O)COc2cccc3c2OC(C)(C)C3)cc1
[24] COc1cccc(CN2CCN(C(=O)C3CCC(=O)N(C4CCCC4)C3)CC2)c1 (centres undefined)

assay / entry	17	18	19	20	21	22	23	24
PrP UTR inh	-19	-1	-20	-11	-4	-9	-7	-9
Sa ugtP lethal	-5	-1	9	2	61	14	4	4
Sa RN4220 lethal	-4.3	5.7	2.3	-0.5	15	6.7	2.9	1.4
BJeLR lethal	-2	.	-9	1	4	3	-4	3
Autofluor counter	13625	2780	4925	6425	8757	12811	4833	5435
Mtb hypoxia inh	-12	4	.	0	6	4	8	8
Mtb hypoxia inh growth	-1	-3	.	-8	15	6	2	4

[25] COc1cccc(C(=O)NC(=O)Nc2cc(C)[nH]n2)c1
[26] C=CCn1c(SCc2c(C)noc2C)nnc1C1COc2ccccc2O1 (centres undefined)
[27] Cc1cc2nc(C3CCCN(C(=O)NCc4ccccc4)C3)[nH]c2cc1C (centres undefined)
[28] C#CCNC(=O)C1=C[C@H](C2CCCCC2)C[C@H](OCc2ccc(CO)cc2)O1
[29] CN(C)c1ccc(S(=O)(=O)NCC(=O)NCCOc2ccccc2F)cc1[N+](=O)[O-]
[30] CCOc1ccc(C(=O)CC(NCc2cccs2)C(=O)O)cc1 (centres undefined)
[31] Cc1ccc(C)c(C(=O)CSc2n[nH]c(C(C)C)n2)c1
[32] COc1cccc(CN(C(=O)c2cc3ccccc3oc2=O)C2CCS(=O)(=O)C2)c1 (centres undefined)

assay / entry	25	26	27	28	29	30	31	32
PrP UTR inh	-78	-31	-44	-32	-13	-11	0	-19
Sa ugtP lethal	8	-6	2	.	4	.	-5	-3
Sa RN4220 lethal	1.8	7.5	0.2	.	2.1	.	-2.9	1.4
BJeLR lethal	12	-3	-2	-2	9	4	7	0
Autofluor counter	6096	9940	4171	3437	?	5078	3002	6261
Mtb hypoxia inh	-2	9	.	.	-2	.	.	5
Mtb hypoxia inh growth	8	6	.	.	-2	.	.	16

[33] Cc1ccc(C)c(NC(=S)NCC(c2ccccc2)N(C)C)c1 (centres undefined)
[34] CCOC(=O)Cc1csc(Nc2ccc(Cl)cc2)n1
[35] O=C(c1ccco1)N1CCN(CCCCN2C(=O)c3ccccc3C2=O)CC1
[36] CCOc1ccc(NC(=O)CN(C)C(=O)C(C)N2C(=O)c3ccccc3C2=O)cc1OCC (centres undefined)
[37] Clc1cnc(NN=Cc2cccs2)c(Cl)c1
[38] COc1ccc(CC(=O)n2nc(-c3ccccc3)nc2NCc2ccco2)cc1
[39] Cc1ccc(S(=O)(=O)c2nnn3c2nc(N2CCN(c4ccccn4)CC2)c2ccccc23)cc1
[40] CCCCCCNC(=O)Cc1nc2nc(C)cc(C)n2n1

assay / entry	33	34	35	36	37	38	39	40
PrP UTR inh	-9	-35	-50	-15	.	-14	-20	-14
Sa ugtP lethal	2	6	-10	0	7	2	-7	4
Sa RN4220 lethal	-1.5	0.2	-2.4	0.9	7.1	4.3	-6.8	1.3
BJeLR lethal	-6	-2	8	.	.	6	-8	-6
Autofluor counter	3900	1992	12691	3591	.	5883	5492	20841*
Mtb hypoxia inh	7	9	0	0	.	3	-4	2
Mtb hypoxia inh growth	9	-7	7	-1	.	2	1	6

[41] O=C1/C(=C/c2ccc(F)cc2)CCC1C1CCCC1 (centres undefined)
[42] C=C1C2CCC3C(O)[C@@]2(CC(O)[C@@]2(O)C1CC(O)C2(C)C)C[C@@]3(C)O (some centres undefined)
[43] COc1ccc(N(C)C(=O)Cc2c(C(=O)O)n(C)c3ccccc23)cc1
[44] O=c1[nH]c(Cn2nnc(-c3ccccc3)n2)nc2scc(-c3ccccc3)c12
[45] Cc1cc(OCC(=O)N(Cc2ccco2)c2c(N)n(Cc3ccccc3)c(=O)[nH]c2=O)ccc1Cl
[46] Cc1cc(C)nc(NS(=O)(=O)c2ccc(NC(=S)NC(=O)C(C)C)cc2)n1
[47] CC(NCc1ccccc1Cl)C(=O)Nc1ccc(S(=O)(=O)N2CCCC2)cc1 (centres undefined)
[48] Cc1ccc(OCCNC(=O)c2cc(=O)[nH]c3ccccc23)cc1

assay / entry	41	42	43	44	45	46	47	48
PrP UTR inh	-123	.	-9	-11	-17	-8	-10	-45
Sa ugtP lethal	13	-9	1	5	21	10	.	6
Sa RN4220 lethal	3.4	5.7	3.1	7.9	3.3	-1.6	.	3.5
BJeLR lethal	-1	.	12	14	.	-6	-6	9
Autofluor counter	2400	.	3624	2111	?	2501	7017	4503
Mtb hypoxia inh	16	7	5	.	-4	.	.	3
Mtb hypoxia inh growth	13	8	-10	.	-2	.	.	4

[49] CN1C2C=C3C(C#N)=C(N)C(C#N)(C#N)[C@@H](c4cccc(F)c4)[C@@H]3C1CC2 (some centres undefined)
[50] CCOc1ccc(C(c2c(O)nc(SC)[nH]c2=O)c2c(O)nc(SC)[nH]c2=O)cc1
[51] Cc1cc(Cl)cc(Br)c1OCCCN1C(=O)NC(C)(C)C1=O
[52] COc1ccc2c(c1)[C@]13CCCCC1C(C2)N(C)CC3 (some centres undefined)
[53] CNCc1ccccc1OCC(=O)Nc1ccccc1OC
[54] Cc1cccc(NCc2ccc([N+](=O)[O-])s2)c1
[55] CC(NC(=O)C(=O)NCC1CCCO1)c1ccccc1 (centres undefined)
[56] CCOc1cc(C(=O)NCc2ccccc2)ccc1OCC(=O)N1CCCCC1

assay / entry	49	50	51	52	53	54	55	56
PrP UTR inh	-12	.	-33	-11	-12	-40	-33	-8
Sa ugtP lethal	0	-1	1	1&2	-2	-5	0	10
Sa RN4220 lethal	-0.8	-0.3	5.7	2.2&5.8	-3.1	5.3	7.5	7.7
BJeLR lethal	0	10	-4	-4	8	-2	0	.
Autofluor counter	4917	5332	20662*	3479	17627*	3903	4085	2769
Mtb hypoxia inh	.	-2	0	-5&3	0	14	7	13
Mtb hypoxia inh growth	.	10	2	-2&7	5	-1	7	4

For reference, some entries already given:
[49] CN1C2C=C3C(C#N)=C(N)C(C#N)(C#N)[C@@H](c4cccc(F)c4)[C@@H]3C1CC2 (some centres undefined)
[50] CCOc1ccc(C(c2c(O)nc(SC)[nH]c2=O)c2c(O)nc(SC)[nH]c2=O)cc1
[51] Cc1cc(Cl)cc(Br)c1OCCCN1C(=O)NC(C)(C)C1=O
[52] COc1ccc2c(c1)[C@]13CCCCC1C(C2)N(C)CC3 (some centres undefined)

assay / entry	49	50	51	52
PrP UTR inh	-12	.	-33	-11
Sa ugtP lethal	0	-1	1	1&2
Sa RN4220 lethal	-0.8	-0.3	5.7	2.2&5.8
BJeLR lethal	0	10	-4	-4
Autofluor counter	4917	5332	20662*	3479
Mtb hypoxia inh	.	-2	0	-5&3
Mtb hypoxia inh growth	.	10	2	-2&7

The results go on.
[57] Cn1cccc1/C=N/NC(=O)c1cccc(OC(F)(F)C(F)F)c1
[58] O=C(CSc1ccccn1)NN=Cc1ccccc1[N+](=O)[O-]
[59] Cn1c(=O)n(C)c2cc(NS(C)(=O)=O)ccc21
[60] COc1ccc(S(=O)(=O)CCC(=O)N2CCN(c3cccc(Cl)c3)CC2)cc1
[61] O=C(O)c1ccc(CN(Cc2ccccc2)S(=O)(=O)c2ccc(Cl)cc2)cc1
[62] Cc1ccc(C(=O)NNC(=O)CCN2C(=O)C3CCCCC3C2=O)cc1 (centres undefined)
[63] Cc1[nH]c(C)c(S(=O)(=O)Nc2cccc(Cl)c2C)c1C(=O)N1CCCCC1
[64] COC(=O)C1=C(C)NC(C)=C(C(=O)OC)C1c1ccc(N(C)C)cc1

assay / entry	57	58	59	60	61	62	63	64
PrP UTR inh	-25	.	4	-20	-26	-9	-2	-3
Sa ugtP lethal	.	4	1	3	9	2	1	3
Sa RN4220 lethal	.	3.3	2.7	2.4	5.8	2.5	3.9	0.8
BJeLR lethal	0	.	-8	1	-3	-23	7	0
Autofluor counter	2490	.	3574	5707	3864	2811	5719	23084*
Mtb hypoxia inh	.	11	4	4	12	11	15	-2
Mtb hypoxia inh growth	.	7	3	6	2	3	10	5

Bioassay records from PubChem.
